Screening data deposited in PubChem by several laboratories.
Mtb H37Rv: M. tuberculosis H37Rv growth inhibitors, H37Rv strain (AID 1626) | M. tuberculosis H37Rv growth inhibition; higher % means a stronger effect | one-dose inhibition, % at 10 µM; IC50 in µM for titrated hits | 0.95% of 220,000 active;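 active means confirmed in a dose series; inconclusive means inhibition above 80% but not taken into the dose series; inactive means below 80% or under 30% at every dose of the series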;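 further: bacteria incubated seven days before Alamar blue readout; 0% = bacteria only wells and 100% = bacteria with antibiotic wells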
RecA intein inh: inhibitors of M. tuberculosis RecA intein splicing | cell-free RecA intein splicing, fluorescence | 0.75% of 290,000 active | inhibition, %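 (about 9 µM by stock and volumes)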 | AID 2221 | P9WHJ3; in the data active means inhibition above about 30%; inconclusive means no clear call, values can overlap the other calls;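 further: 0% = vehicle wells and 100% = reference inhibitor control wells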
Target sequence (P9WHJ3 whole entry, looked up): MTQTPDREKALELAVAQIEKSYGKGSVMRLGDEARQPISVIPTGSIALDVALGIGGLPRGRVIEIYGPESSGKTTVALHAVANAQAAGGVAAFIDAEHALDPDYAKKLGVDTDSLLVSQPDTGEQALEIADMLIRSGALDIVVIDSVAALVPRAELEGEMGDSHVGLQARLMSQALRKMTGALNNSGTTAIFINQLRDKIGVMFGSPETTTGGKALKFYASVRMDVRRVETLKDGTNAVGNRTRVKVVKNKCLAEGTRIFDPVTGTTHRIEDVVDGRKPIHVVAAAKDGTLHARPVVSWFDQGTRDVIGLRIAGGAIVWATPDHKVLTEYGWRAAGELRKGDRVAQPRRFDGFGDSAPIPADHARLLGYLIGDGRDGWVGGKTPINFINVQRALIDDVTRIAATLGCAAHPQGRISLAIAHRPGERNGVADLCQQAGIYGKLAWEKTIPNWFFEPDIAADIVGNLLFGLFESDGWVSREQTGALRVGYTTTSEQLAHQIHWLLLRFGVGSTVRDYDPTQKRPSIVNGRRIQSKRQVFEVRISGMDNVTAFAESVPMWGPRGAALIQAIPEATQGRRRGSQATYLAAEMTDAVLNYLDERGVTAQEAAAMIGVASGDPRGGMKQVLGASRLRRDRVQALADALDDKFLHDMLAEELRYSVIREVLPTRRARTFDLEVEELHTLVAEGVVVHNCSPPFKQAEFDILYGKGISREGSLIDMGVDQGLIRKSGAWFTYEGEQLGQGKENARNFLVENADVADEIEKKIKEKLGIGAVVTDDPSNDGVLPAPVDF
YopH inh: YopH (Yersinia) phosphatase inhibition; 0.16% of 140,000 active; AID 898; inhibition, %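 (about 10 µM by stock and volumes)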; fluorescence Ex485/Em525;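 active means inhibition of 50% or more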;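 further: controls were vehicle for no effect and minimum signal wells for full effect; inactives centre near -20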
Arbovirus inh: antivirals against arbovirus infection; arbovirus infection cell-based antiviral screen; inhibition, % at 10 µM; 0.37% of 200,000 active; AID 1251;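 active means inhibition from about 30%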;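 further: bluetongue infection of BSR cells; cell survival read as ATP light after 72 h; 0% = infected wells without compound and 100% = uninfected wells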
Mtb betalactam: beta-lactam sensitization of Mtb H37Rv. M. tuberculosis H37Rv growth with meropenem, percent inhibition; hits of this screen are not shown here. inhibition, % at 25 µM. 0.27% of 330,000 active;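 active means about 74% or more and at least 40 points above the plate without the antibiotic, then above 30% in a dose series; inconclusive means first-round hits that could not be retested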;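 further: growth measured after seven days incubation then overnight dye step; 0% = bacteria only wells and 100% = bacteria with antibiotic; twin plates without the antibiotic show which effects depend on it; some results filed as inactive read as strong as hits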
Arbovirus inh repeat: also measured in Arbovirus inh; calls as there; inhibition, %; measured here: 10K subset replicate screen; many hits read low in the repeat;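 first of two repeat runs on a subset; 0% = infected and 100% = uninfected wells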
* marks the source's active call; other numbers are inactive results; ? = inconclusive; · = no result given.

SMILES	Mtb H37Rv	RecA intein inh	YopH inh	Arbovirus inh	Mtb betalactam	others
Cc1ccc(C(=O)Nc2ccc(N3CCCC3)cc2)cc1	2.9%	-8.6	·	6.3	-2.6
O=C(Nc1nc(-c2nc3ccccc3s2)cs1)c1ccco1	-1.8%	0.8	-17.6	-18.9	-8.2
NC(=O)C1CCN(C(=O)CSc2ccccn2)CC1	-4.9%	0.4	-15.8	-0.2	6.3
CC(=O)NS(=O)(=O)c1ccc(N/C(N)=N/c2nc(C)cc(C)n2)cc1	·	-0.2	·	·	-5.7
CC(C)(C)NC(=O)NC(=O)CN1CCN(S(=O)(=O)c2ccc3c(c2)OCCO3)CC1	2.3%	-4.2	·	·	1.5
CSc1nc2sc3c(c2c(=O)[nH]1)CCCC3	-9.2%	-1.1	-56.8	-4.0	-3.7
Cc1cccc(OCC(=O)Nc2ccc(S(=O)(=O)N3CCN(C)CC3)cc2)c1	8.1%	1.1	-20.4	2.0	-10.7
O=C(Nc1ccccn1)C1CCN(S(=O)(=O)c2ccc(Cl)cc2)CC1	·	-2.8	·	·	-8.8
COc1ccc(-c2nnc(SCc3nnc(-c4cccs4)o3)n2CC2CCCO2)cc1 (stereo unspecified)	5.5%	-0.7	-29.3	4.1	3.2
COc1ccc(OCC(=O)N/N=C2\CCc3ccccc32)cc1	5.9%	1.3	-3.1	-3.1	2.8
COC(=O)N/N=C\c1ccc(OC(=O)c2ccco2)cc1	4.4%	39.6*	·	0.9	45.0
Cc1ccc(S(=O)(=O)CCc2ccncc2)cc1	·	-5.1	·	·	-5.0
COCCN1Cc2c(sc(C)c2C)N(C(=O)c2ccccc2)C1	3.8%	-4.8	-18.8	7.2	-12.1
COc1cc(C2C(C(=O)c3cc4ccccc4o3)=C(O)C(=O)N2c2cc(C)on2)cc(OC)c1OC (stereo unspecified)	·	-3.0	·	·	0.2
CCCn1c(C)cs/c1=N\C(=S)Nc1ccccc1	7.1%	-2.9	-5.9	-1.2	-4.6
CC1CC(Nc2ccccc2)c2ccccc2N1C(=O)c1ccncc1 (stereo unspecified)	-0.8%	-6.4	·	11.8	-6.8
CC(NC(=O)c1ccc(N(C)C)cc1)C1CC2CCC1C2 (stereo unspecified)	·	·	-29.3	11.9	·
COC(=O)C(NC(=O)c1ccccc1)(Nc1nc(C)cs1)C(F)(F)F (stereo unspecified)	-1.7%	0.4	-33.7	6.0	-8.2
Cc1cc(=O)[nH]c(=S)n1-c1ccccc1	2.2%	-0.6	-17.1	4.7	2.1
CCOc1ccccc1NC(=O)c1cccc2c1C(=O)N(CCOC)C2	3.6%	-0.7	-27.6	-5.8	-0.5

A draw from above in order of molar mass, descending:
SMILES	Mtb H37Rv	RecA intein inh	YopH inh	Arbovirus inh	Mtb betalactam	others
COc1cc(C2C(C(=O)c3cc4ccccc4o3)=C(O)C(=O)N2c2cc(C)on2)cc(OC)c1OC (stereo unspecified)	·	-3.0	·	·	0.2
COc1ccc(-c2nnc(SCc3nnc(-c4cccs4)o3)n2CC2CCCO2)cc1 (stereo unspecified)	5.5%	-0.7	-29.3	4.1	3.2
CC(C)(C)NC(=O)NC(=O)CN1CCN(S(=O)(=O)c2ccc3c(c2)OCCO3)CC1	2.3%	-4.2	·	·	1.5
Cc1cccc(OCC(=O)Nc2ccc(S(=O)(=O)N3CCN(C)CC3)cc2)c1	8.1%	1.1	-20.4	2.0	-10.7
O=C(Nc1ccccn1)C1CCN(S(=O)(=O)c2ccc(Cl)cc2)CC1	·	-2.8	·	·	-8.8
COC(=O)C(NC(=O)c1ccccc1)(Nc1nc(C)cs1)C(F)(F)F (stereo unspecified)	-1.7%	0.4	-33.7	6.0	-8.2
CC(=O)NS(=O)(=O)c1ccc(N/C(N)=N/c2nc(C)cc(C)n2)cc1	·	-0.2	·	·	-5.7
CCOc1ccccc1NC(=O)c1cccc2c1C(=O)N(CCOC)C2	3.6%	-0.7	-27.6	-5.8	-0.5
COCCN1Cc2c(sc(C)c2C)N(C(=O)c2ccccc2)C1	3.8%	-4.8	-18.8	7.2	-12.1
O=C(Nc1nc(-c2nc3ccccc3s2)cs1)c1ccco1	-1.8%	0.8	-17.6	-18.9	-8.2
COc1ccc(OCC(=O)N/N=C2\CCc3ccccc32)cc1	5.9%	1.3	-3.1	-3.1	2.8
CCCn1c(C)cs/c1=N\C(=S)Nc1ccccc1	7.1%	-2.9	-5.9	-1.2	-4.6
CC(NC(=O)c1ccc(N(C)C)cc1)C1CC2CCC1C2 (stereo unspecified)	·	·	-29.3	11.9	·
Cc1ccc(C(=O)Nc2ccc(N3CCCC3)cc2)cc1	2.9%	-8.6	·	6.3	-2.6
NC(=O)C1CCN(C(=O)CSc2ccccn2)CC1	-4.9%	0.4	-15.8	-0.2	6.3
Cc1ccc(S(=O)(=O)CCc2ccncc2)cc1	·	-5.1	·	·	-5.0
CSc1nc2sc3c(c2c(=O)[nH]1)CCCC3	-9.2%	-1.1	-56.8	-4.0	-3.7
Cc1cc(=O)[nH]c(=S)n1-c1ccccc1	2.2%	-0.6	-17.1	4.7	2.1

(cont.)
SMILES	Mtb H37Rv	RecA intein inh	YopH inh	Arbovirus inh	Mtb betalactam	others
Cc1cccc(OCCn2c(NC(=O)c3ccco3)nc3ccccc32)c1	?	0.9	-12.0	-16.9	89.9
C/C=C/C=C\C(=O)Nc1cccc(C2=NOC3(C2)C[C@@H](C(N)=O)N(C(=O)c2cc([N+](=O)[O-])cc([N+](=O)[O-])c2)C3)c1 (stereo partly specified)	47.1%	1.3	·	·	100.1
O=C(C1CC1)N1CCc2cc(Br)cc(S(=O)(=O)NCCCN3CCCC3)c21	-5.8%	-1.0	-36.9	3.9	-0.9	Arbovirus inh repeat=-0.7
CC(C1CC2CCC1C2)N1CC(O)=C(c2nc3ccccc3[nH]2)C1=N (stereo unspecified)	·	3.6	·	·	61.3
COCCNC(=O)COC(=O)c1cccnc1SC	-1.6%	-1.4	·	5.2	-1.7
CCN(C(=O)CN1CCOCC1)c1c(N)n(Cc2ccccc2)c(=O)[nH]c1=O	4.7%	2.2	·	0.7	0.4
C=CCNc1nc(-c2sc(NC(C)=O)nc2C)cs1	7.4%	5.7	-1.6	-25.8	0.7
Cn1c(=O)c2c(nc(NCc3ccc4c(c3)OCO4)n2Cc2ccccc2Cl)n(C)c1=O	4.3%	-4.4	-20.3	-6.2	2.7
COc1ccc(C(=O)NC(=S)NCCc2ccccc2)cc1	6.2%	0.8	·	3.8	8.8
COCCn1c(SCc2nc3ccccc3c(=O)[nH]2)nnc1-c1ccncc1	-4.7%	0.8	-38.4	13.0	-4.1
O=C(N/N=C/c1c(O)n(Cc2ccccc2)c(=O)[nH]c1=O)c1ccncc1	?	2.7	·	·	99.7
COc1ccc(CCNC(=O)CCn2c(=O)c3cccn3c3cccnc32)cc1OC	·	2.9	·	·	-3.7
COc1ccc(C(=O)Nc2nnc(Cc3ccc(OC)c(OC)c3)s2)c(OC)c1	·	0.8	·	·	-1.3
CN(CC(=O)Nc1ccc(F)c(F)c1F)c1cnccn1	50.4%	9.7	-43.1	-6.5	99.3
CN(Cc1c(C(=O)N/N=C/c2cccc(Cl)c2)nnn1-c1nonc1N)c1ccccc1	·	9.2	·	·	-0.1
O=[N+]([O-])c1ccc(COc2ccc(-c3[nH]ncc3-c3ccccc3)c(O)c2)cc1	11.9%	1.3	7.6	-16.8	3.7
Cc1ccc(NC(=O)c2cccs2)cc1S(=O)(=O)N(C)C	1.0%	4.6	-22.2	6.7	7.7
C=CCN(CC=C)C(=S)NC(=O)/C=C/c1ccc(OC)cc1	-2.5%	5.4	-39.2	2.3	-1.1
CN(C)S(=O)(=O)N1CCC(Oc2cccc(C(=O)NC3CCOC3)c2)CC1 (stereo unspecified)	·	3.2	·	·	-18.9
CCOC(=O)C1CCN(C(=O)COC(=O)c2ccccc2C(=O)c2ccc(Cl)cc2)CC1	·	-2.4	·	·	7.3
COc1ccc(N2CCN(S(=O)(=O)c3c(C)nc4scc(C)n4c3=O)CC2)cc1	·	0.7	·	·	-6.4
CC12CNCC(C)(CN(C(c3ccccc3)c3ccccc3)C1)C2	-7.8%	2.1	-19.0	-20.8	-6.7
CCOc1ccc(N2C(=O)CC(Sc3nccc(C)n3)C2=O)cc1 (stereo unspecified)	3.6%	0.1	-1.7	-1.3	-5.9
CCN1CCN(CCC(=O)Nc2ccccc2OC)CC1	2.2%	-0.6	-31.6	6.5	-5.8
COc1ccc(C(=O)Sc2ccc(C)cc2)cc1OC	-4.1%	17.3	-23.7	-0.2	45.0
Cc1nn(-c2ccccc2)c2[nH]c(=O)c(CNc3ccc(N4CCOCC4)cc3)cc12	-4.3%	-6.1	-12.3	-9.6	-4.8
O=C(COS(=O)c1ccccc1)Nc1cc(Cl)ccc1N1CCOCC1 (stereo unspecified)	-8.3%	1.8	·	29.9	4.5
CCN(CC)c1ccc(CNc2ccc3c(c2)ncn3C(C)(C)C)cc1	·	4.1	·	·	4.4
CN1C(=O)C(=Cc2cccnc2)C(=O)N(C)C1=O	-14.8%	-1.5	·	·	-1.6
CCCCN(C)CCCNC(=O)Cn1c(=O)sc2ccccc21	-5.7%	-1.9	-24.9	-0.3	-3.4	Arbovirus inh repeat=3.8
COc1ccc(/C=C/C(=O)NCCSCc2ccco2)cc1	-1.5%	3.4	-20.9	-1.4	-0.6
CCc1ccc(NC(=O)CSc2nnc(CNC(=O)c3ccco3)o2)cc1	·	-1.5	·	·	4.8
CCOC(=O)/C=C/C(=O)OCC(=O)Nc1ccc(Cl)cn1	-7.4%	·	-8.6	7.0	3.7
Cc1ccc(O)c(NC(=O)COc2cc(C)ccc2C)c1	-5.9%	-0.8	2.8	6.7	-3.6
CCOC(=O)c1cc2sc(C)cc2n1CC(=O)N1CCOCC1	-0.3%	-0.2	-16.2	-2.7	0.3
O=S(=O)(c1ccc(Cl)cc1)N1CCN=C1SCc1cccc(Cl)c1	3.2%	0.8	0.6	3.1	8.8
CCOc1ccc(/C=C/c2nc(C#N)c(NCCCN(C)C)o2)cc1	·	-3.8	·	·	-3.2
CCc1ccc(NC(=O)c2cnc3scc(C)n3c2=O)cc1	·	-3.3	-22.7	0.0	-9.6
Nc1cccc2c1C(=O)N(C(=O)c1cccc(S(=O)(=O)N3CCCC3)c1)C2=O	7.5%	-159.4	4.0	-4.1	3.8
Cc1coc2c(C)c3oc(=O)c(CCC(=O)NCCN4CCOCC4)c(C)c3cc12	·	0.9	·	·	-3.5
Cc1nc(N2CCN(c3ccccc3)CC2)[nH]c(=O)c1CCC(C)C	6.6%	-2.2	·	-9.3	2.6
C#CCOCCOCCOCCNc1nc(N2CCN(C(=O)[C@H](C(C)C)n3cc(CCO)nn3)CC2)nc(N2CCN(C(=O)[C@H](CCCCN)n3cc(CCCC)nn3)CC2)n1	-15.9%	0.4	5.9	-0.3	-1.6
Cc1nc(N)sc1-c1nnc(SCC(=O)Nc2ccccc2C(F)(F)F)n1C	-13.5%	0.1	-14.1	12.7	-6.5
COc1cccc(N2C(=O)NC(=O)/C(=C/c3ccc4c(c3)Cc3ccccc3-4)C2=O)c1	7.1%	2.1	·	-2.0	10.2
COc1cccc(-n2nnnc2SCC(=O)Nc2cccc(C)n2)c1	-3.3%	3.5	-15.9	-6.0	2.4
O=C(N/N=C/c1cccnc1)c1cccc(S(=O)(=O)N2CCCC2)c1	2.4%	-0.6	·	7.2	2.1
CCOC(=O)c1sc2nc(C)cc(-c3ccccc3)c2c1N	-2.7%	-10.7	-22.8	8.6	20.8
Cc1csc2ncc(C(=O)NC(C)c3ccccc3)c(=O)n12 (stereo unspecified)	6.7%	1.2	-17.6	6.0	-7.6
c1ccc(CN2CCN(CCOCCOc3cccc4ccccc34)CC2)cc1	9.5%	4.4	·	1.3	-1.7
CCCNC(=O)CCn1nc(-c2ccccc2)c2ccccc2c1=O	·	-0.1	·	·	-8.8
Cc1ccc(N2C(=O)C3NN=C(C(=O)OCc4ccccc4)C3C2=O)cc1 (stereo unspecified)	-5.9%	0.3	-26.7	2.4	-2.6
COc1ccc(C(NC(=O)CNC(C)=O)C(=O)Nc2ccc(C(C)C)cc2)cc1 (stereo unspecified)	-9.6%	-4.1	-21.6	-2.5	-0.4
CN(Cc1ccccc1)CC(O)COc1ccc(CNCCc2ccncc2)cc1 (stereo unspecified)	-0.7%	-1.0	·	-16.8	0.1
FC(F)(F)c1ccccc1NC(=S)NC1CCN(Cc2ccccc2)CC1	-2.2%	-0.1	·	-6.1	-4.4

Some of the compounds tested; the hit share may differ from the screen's.
